# LANA-H2A inh – blockers of LANA interaction with H2A/H2B – biochemical, FP readout, HTS, primary screen; Protein LANA1 (Human herpesvirus 8 type P (isolate GK18)), Q9QR71; cell-free LANA-H2A/H2B peptide, fluorescence polarization; inhibition, % (no concentration beside the values); 0.6% of 320,000 active; AID 2629, 2010; in the data active = inhibition mostly above about 10%, no sharp cut-off; inactive = mostly below about 6.7%;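 note: stock transfer was 7.5 nL into about 10 µL; 0% = median of vehicle wells and 100% = median of positive control wells; one replicate is shown; the record names a cut of 25% in any replicate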
# Target sequence (Q9QR71 whole entry, looked up): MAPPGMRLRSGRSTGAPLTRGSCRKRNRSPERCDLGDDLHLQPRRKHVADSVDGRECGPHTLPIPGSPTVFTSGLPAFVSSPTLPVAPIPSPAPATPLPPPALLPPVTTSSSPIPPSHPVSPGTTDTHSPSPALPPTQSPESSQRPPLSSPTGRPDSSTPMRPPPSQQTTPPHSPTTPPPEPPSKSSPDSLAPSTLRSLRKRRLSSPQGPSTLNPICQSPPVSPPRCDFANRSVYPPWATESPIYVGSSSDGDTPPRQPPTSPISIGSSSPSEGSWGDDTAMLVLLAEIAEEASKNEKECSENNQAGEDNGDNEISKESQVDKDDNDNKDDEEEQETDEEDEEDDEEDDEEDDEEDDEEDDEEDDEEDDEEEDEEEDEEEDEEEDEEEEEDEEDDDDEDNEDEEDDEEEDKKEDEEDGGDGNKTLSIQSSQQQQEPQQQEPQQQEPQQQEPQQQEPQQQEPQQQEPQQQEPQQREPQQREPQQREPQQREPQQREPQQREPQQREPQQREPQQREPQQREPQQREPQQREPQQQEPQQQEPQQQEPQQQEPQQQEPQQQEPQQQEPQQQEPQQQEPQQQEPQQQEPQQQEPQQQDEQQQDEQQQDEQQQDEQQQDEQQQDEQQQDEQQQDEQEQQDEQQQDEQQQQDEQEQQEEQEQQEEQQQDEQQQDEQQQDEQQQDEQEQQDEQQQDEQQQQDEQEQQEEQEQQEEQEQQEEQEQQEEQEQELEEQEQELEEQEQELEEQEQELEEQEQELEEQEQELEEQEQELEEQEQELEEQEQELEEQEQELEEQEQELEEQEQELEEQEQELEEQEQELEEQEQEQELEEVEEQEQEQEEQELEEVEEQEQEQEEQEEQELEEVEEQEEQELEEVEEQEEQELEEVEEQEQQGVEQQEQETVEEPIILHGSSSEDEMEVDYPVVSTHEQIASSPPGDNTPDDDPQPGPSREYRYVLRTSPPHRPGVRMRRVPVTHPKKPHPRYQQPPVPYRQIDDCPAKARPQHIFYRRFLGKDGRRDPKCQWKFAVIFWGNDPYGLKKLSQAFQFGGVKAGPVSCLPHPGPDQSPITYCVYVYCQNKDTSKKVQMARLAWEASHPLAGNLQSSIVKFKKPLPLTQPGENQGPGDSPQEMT
# Beta2AR agonist – beta2AR agonists driving receptor internalization, primary screen, cell-based, FAP fluorogen, flow cytometry | Beta-2 adrenergic receptor (Homo sapiens), P07550 | response, % (concentration not given with the values) | 0.43% of 340,000 active | Am2.2-beta2AR cells; reference of the scale not given here;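 active = response above a set limit, near 3 SD of response in nonfluorescent compounds, cut at about 42% in these data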;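 note: stock transfer was 100 nL into about 11 µL; a reference agonist was the positive control; negative values mostly stem from fluorescent compounds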
# Calb FLC – C. albicans growth inhibition with fluconazole, primary screen, CaCi-2 strain, Alamar Blue fluorescence; C. albicans CaCi-2 (fluconazole-resistant clinical isolate) + fluconazole, 48 h; growth inhibition, % (test concentration not listed); 0.57% of 300,000 active;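 active = most replicates above 75%; inconclusive = exactly half above 75%; inactive = most below 75%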;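 note: all wells also contain fluconazole at 8 µg/ml as a sub-toxic cotreatment; 0% = median of DMSO wells and 100% = median of geldanamycin control wells; wells of about 8 µL received 7.5 nL stock; the first replicate is given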
# UCH37 DUB inh – inhibitors of human UCH37 deubiquitinase, primary screen, biochemical, Ub-AMC cleavage, fluorescence; inhibition, % (no concentration beside the values); 0.33% of 330,000 active; AID 588478, 2011; purified proteasome/UCH37;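 active = mean of two replicates above 20%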;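 note: 0% = compound-free wells with enzyme and 100% = wells lacking proteasome; stock transfer was 100 nL into about 20 µL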
#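 Signal – fluorescence, ex 355 nm, em 460 nm · System – Proteasome-bound UCH37 · Input – 0.15 nM proteasome as dispensed · Timing – 30 min preincubation with enzyme, 25 min cleavage at room temperature · Read-out basis – percent inhibition of cleavage signal versus uninhibited and no-proteasome wells · Medium – Tris-HCl pH 7.4 with ATP-MgCl2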
# Beta cell apopt – inhibitors of cytokine-induced beta cell apoptosis, primary screen, luminescence | protection from apoptosis, % (concentration not given with the values) | 0.8% of 300,000 active | INS-1E cytokine-induced death, ATP luminescence, 48 h; percent of positive-control rescue, neutral wells zero | AID 435005, 2010;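 active = all replicates at 75% or more, or half of them and the mean; inconclusive = half reach 75% but not the mean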;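 note: 0% = cytokine-treated negative control wells and 100% = positive control rescue; higher means more ATP so stronger rescue from cytokine killing; wells of about 40 µL received 100 nL stock; the first replicate is given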
# RanGTP-Impb inh – inhibitors of RanGTP-importin-beta interaction, primary screen, biochemical, FRET, CFP-Ran, YFP-importin-beta, homogeneous | Ran GTPase (GTP-bound) - importin-beta complex | cell-free CFP-Ran/YFP-importin-beta FRET ratio | inhibition, % (test concentration not listed) | 1.1% of 300,000 active | AID 2216, 2009;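 active = most replicates above 15%; inconclusive = exactly half above 15%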;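 note: 0% = DMSO wells and 100% = Ran loaded with GDP instead of GTP; wells of about 40 µL received 100 nL stock; the first replicate is given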
# T cruzi repl – inhibitors of intracellular T. cruzi growth, primary screen, luminescence, NIH3T3 host cells | T. cruzi beta-gal in NIH3T3, 90 h | inhibition, % (test concentration not listed) | 1.4% of 300,000 active | AID 1885, 2009;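 active = mean inhibition across valid replicates above about 55%, limit read from the data; inconclusive = mean below that limit but half or more replicates reach it; inactive = mean below it, under half of replicates reach it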;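 note: signal also drops with host cell toxicity which is not excluded here; 0% = plate median of DMSO wells and 100% = zero luminescence signal; higher percent means less beta-gal luminescence so fewer parasites; stock transfer was 50 nL into about 50 µL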
# Bfl-1 A1 inh – caspase 3/7 activation in MEF A1-2A-BIM cells, primary screen, A1 inhibitor project, cell-based, luminescence, HTS; Caspase-Glo 3/7 luminescence, 3 h; percent of clofoctol response, vehicle zero; 0.066% of 330,000 active; caspase activation, % (no concentration beside the values);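 active = over half of replicate activation scores above 10%, or exactly half above 10 with the replicate mean above 10; inconclusive = replicate mean below 10 yet half the replicates above 10; inactive = over half of replicates below 10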;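 note: wells of about 30 µL received 50 nL stock; many hits fall short of the cut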
# * = called active by the depositor; ? = inconclusive; . = no result given; + = active, no number.
SMILES,LANA-H2A inh,Beta2AR agonist,Calb FLC,UCH37 DUB inh,Beta cell apopt,RanGTP-Impb inh,T cruzi repl,Bfl-1 A1 inh
CCCC(C)C(=O)Nc1ccccc1C(=O)OCC (configuration not stated),-0.2,2,2,3.9,2,1.5,-6,-0.2
Cc1cc(C)n(CC(O)COc2ccc(F)cc2)n1 (configuration not stated),1.7,-1,4,4.1,-8,0.1,2,0.5
COc1cc(N)c(Cl)cc1C(=O)OCC(=O)NCC1CCCCC1,-4.1,-8,.,0.8,-4,.,.,-0.7
Cn1c(-c2cccc([N+](=O)[O-])c2)cnc1NCc1cccc(F)c1,3.0,1,1,8.0,-4,0.8,-5,0.1
Fc1ccc(OCCOCCNCC2CCCO2)cc1 (configuration not stated),3.1,6,1,3.8,-11,0.6,21,-0.4
CCC(=O)Nc1ccc2c(c1)nc(CCN1CCN(c3ccccn3)CC1)n2C,2.1,11,14,2.3,3,?,-5,-1.0
CCOc1c2ccc(C(=O)NCc3ccc(C)cc3)cc2nn1CCOC,0.7,-1,-2,-70,-6,2.1,-9,1.4
Cc1cc(C)cc(OCC(=O)N(C)CC(=O)Nc2ccc(Cl)c(C(F)(F)F)c2)c1,-4.7,1,.,2.2,-8,.,.,-0.1
CCOc1ccc(CNC(=O)CCn2c(=O)oc3ccccc32)cc1,1.9,-3,-24,2.0,-2,-2.8,-5,-0.7
CC(C)(C)c1ccc(C(CC(=O)O)NC(=O)Cc2ccc(Cl)cc2)cc1 (configuration not stated),-1.3,-7,1,2.5,-8,5.4,-17,-0.2
CCN(CC(=O)NCc1cccs1)C(=O)c1cccc(Cl)c1,5.1,3,.,3.1,-3,.,.,1.8
CCCCn1c(N)c(N(C)C(=O)C2CCCC2)c(=O)[nH]c1=O,-0.2,-3,.,-0.4,1,.,.,0.6
Cc1cccc(-n2ncc(C#N)c2N)c1,2.4,-19,11,0.2,-3,-6.1,-11,-0.2
CC(Sc1nnc2ccccn12)C(=O)Nc1ccc2c(c1)OCCO2 (configuration not stated),-3.4,4,-45,4.5,2,1.1,-1,2.2
Cc1c(CN(C)C)c2c(n1Cc1ccccc1)C(=O)c1ccccc1-2,-0.7,1,0,-5.2,-3,2.7,11,-0.5
Cc1ccccc1CN(c1ccc(C(=O)Nc2cccnc2)cc1)S(C)(=O)=O,0.9,-3,5,7.3,.,3.9,-26,0.8
CS(=O)(=O)Nc1ccc(C(=O)NC2CC3CCC2C3)cc1 (configuration not stated),3.0,1,-13,-0.3,-2,0.0,-13,-0.3
O=S(=O)(NC1CC1)c1ccc(S(=O)(=O)N2CCCc3ccccc32)cc1,-6.6,5,21,2.1,29,5.9,-10,0.0
CCCC/S(C)=N/S(=O)(=O)c1ccc(C)cc1 (configuration not stated),1.5,10,3,4.9,-17,3.0,-11,0.6
CC(C)C(=O)Nc1ccc(-c2nc3ncccc3o2)cc1,4.5,21,-19,-327,2,-3.5,6,-0.6
O=C(Nc1ccccc1F)N(Cc1ccc(F)cc1)Cc1nc2ccccc2c(=O)[nH]1,5.6,-1,-7,4.1,-3,-0.9,14,-0.3
C=CCn1c(SCCN2CCOCC2)nc2c1c(=O)[nH]c(=O)n2C,2.3,3,4,1.0,2,2.8,-13,-0.4
O=c1[nH]c2ccc(NCc3ccc(F)cc3)cc2[nH]1,3.4,-4,34,0.1,.,5.5,-9,0.0
CN(C)/C=C/C(=O)c1ccc(Br)cc1,1.3,-1,-21,5.2,10,-3.8,-20,-2.3

# One compound at a time, from the list above. Screens in order: LANA-H2A inh | Beta2AR agonist | Calb FLC | UCH37 DUB inh | Beta cell apopt | RanGTP-Impb inh | T cruzi repl | Bfl-1 A1 inh
# CC(Sc1nnc2ccccn12)C(=O)Nc1ccc2c(c1)OCCO2 (configuration not stated) across the screens: -3.4 | 4 | -45 | 4.5 | 2 | 1.1 | -1 | 2.2
# CC(C)C(=O)Nc1ccc(-c2nc3ncccc3o2)cc1 across the screens: 4.5 | 21 | -19 | -327 | 2 | -3.5 | 6 | -0.6

# (further entries)
SMILES,LANA-H2A inh,Beta2AR agonist,Calb FLC,UCH37 DUB inh,Beta cell apopt,RanGTP-Impb inh,T cruzi repl,Bfl-1 A1 inh
CC(C)c1ccc(CNc2ncc(Br)cn2)cc1,0.4,6,-14,1.9,-2,0.5,19,0.0
COc1ccc(Cl)cc1N(C(=O)c1ccco1)C(C(=O)NC1CCCC1)c1cccnc1 (configuration not stated),2.1,4,-9,0.1,-3,-2.1,5,0.8
CC(=N/O)/C(=N\O)c1ccc(C)o1,-1.8,6,.,.,-9,-2.2,-16,0.2
CCOc1ccccc1C(=O)OCC(=O)Nc1cccc(S(=O)(=O)N2CCCC2)c1,-5.6,1,.,0.6,-6,.,.,-0.3
O=C(COc1ccc(Br)cc1)NCCN1CCCC1,5.5,-1,-1,2.1,-3,2.1,17,0.6
CC(=O)NC1C(=O)N(CC(C)C)c2ccccc21 (configuration not stated),8.2,4,-16,-1.3,3,-1.3,3,-0.8
CCC1CCCCN1C(=O)COc1ccc2c3c(c(=O)oc2c1)CCC3 (configuration not stated),32*,-16,.,-23,-1,.,.,0.9
Cc1cccc(Nc2nnc(SCC(=O)NC3CCCc4ccccc43)s2)c1C (configuration not stated),-0.1,24,15,2.1,5,-3.6,-4,0.3
O=C(NCc1ccccn1)c1ccccc1OCc1ccc(Cl)cc1Cl,-1.6,4,.,-0.6,-3,.,.,2.1
COc1cccc(NC(=O)c2ccc(S(=O)(=O)N3CCCCC3)cc2)c1,-3.9,-1,-5,3.5,2,-1.5,-12,0.2
CC(=O)c1ccccc1NC(=O)c1cc(S(=O)(=O)N2CCOCC2)ccc1N1CCCC1,3.1,-2,.,5.5,-4,.,.,0.9
COc1ccc(Nc2nc(N)nc(CSC(=S)N3CCN(c4ccccc4)CC3)n2)cc1,-3.0,2,-2,4.3,-3,-3.2,-30,0.0
O=C(Nc1cccc(S(=O)(=O)NCc2ccco2)c1)c1cc(-c2ccc(F)cc2)nc2ccccc12,-2.3,12,15,-9.2,.,-0.8,49,-0.4
COCCN1CCC(CNCc2cn(-c3cc(C)ccc3C)nc2-c2ccccc2)C1 (configuration not stated),-1.2,10,36,-0.8,-9,-0.3,24,0.5
CC(Sc1nnc(C2CC2)n1C1CC1)C(=O)Nc1cccc(S(=O)(=O)N(C)C)c1 (configuration not stated),+,1,.,-0.7,-4,.,.,0.0
COc1ccc2c(c1OC)C(=O)N1N=C(c3ccc(F)cc3)CC21 (configuration not stated),-1.8,-10,-10,2.5,5,2.5,8,0.3
O=[N+]([O-])c1cc(C(F)(F)F)cc([N+](=O)[O-])c1NCCCN1CCOCC1,3.7,-2,12,2.5,-3,5.7,27,0.6
CCOC(=O)c1oc2cc(O)ccc2c(=O)c1-c1csc(C)n1,3.6,5,11,2.3,3,-0.9,-6,0.5
NC(=O)c1cccc(-c2cccc(OC(=O)NC3CCCCC3)c2)c1,0.0,-9,-3,0.2,-6,0.5,-11,0.0
Cc1onc(-c2c(F)cccc2Cl)c1C(=O)N1CCOC12CCCCC2,-1.7,-1,-6,1.3,-1,-2.2,1,0.9
O=C(CSc1nnc(CNC(=O)c2ccccc2F)o1)Nc1ccc2c(c1)OCO2,0.8,8,-10,0.4,2,0.6,-6,0.5
CCC(C)NC(=O)Cn1cc(S(=O)(=O)N2CCCC2)c(S(=O)(=O)N2CCCC2)c1 (configuration not stated),-2.9,-3,4,4.6,-10,?,6,1.4
O=C(CSc1cn(CC(=O)N2CCCCCC2)c2ccccc12)NCC1CCCO1 (configuration not stated),-6.0,-4,17,2.1,-4,-1.7,11,-0.1
COc1ccc(Cc2nnc(SCC(=O)c3c(N)n(C4CC4)c(=O)[nH]c3=O)o2)cc1,0.4,-1,.,1.1,0,.,.,-0.8
O=C(NCC1CCCN1S(=O)(=O)c1cccs1)C(=O)Nc1ccccc1Cl (configuration not stated),-10,3,-5,1.2,-1,3.6,24,0.1
O=C(Nc1cccc([N+](=O)[O-])c1)N1CCCc2ccccc21,1.1,-1,-29,-0.2,3,1.5,1,0.7
COc1ccccc1C(=O)NCCCNC(=O)c1cnccn1,-1.9,-4,-1,3.8,-1,-1.0,-3,-0.1
COc1cc(CCCN2CCNC[C@@H]2Cc2ccc(O)cc2)cc(OC)c1OC,1.8,2,-8,-0.7,-14,12,-37,-1.2
CC(=O)N1CCCc2cc(S(=O)(=O)N3CCCC(C(=O)Nc4ccccc4C)C3)ccc21 (configuration not stated),-0.7,9,-14,2.4,1,1.4,-9,-0.5
CCN(CC)c1nc(C(F)(F)F)nc2c1nnn2Cc1ccccc1,-0.5,-2,-3,3.0,7,0.6,19,0.5
Cc1ccc(C2C(=O)N(C3CCCC3)CC(=O)N2CC2COc3ccccc3O2)cc1 (configuration not stated),0.2,-10,5,3.9,7,1.9,8,0.4
Cc1cccc(OCc2nnc(SCC(=O)c3ccccc3)o2)c1,-3.8,-5,43,0.5,.,1.3,7,1.0
CN1CCN(S(=O)(=O)c2ccc(N)cc2)CC1,1.1,0,-3,3.5,-5,-0.6,-12,0.8
COc1ccc(C)cc1NC(=O)CN1C(=O)COc2ccc(S(=O)(=O)N3CCC(C)CC3)cc21,-4.1,4,-5,1.7,2,3.6,28,1.9
COc1cccc(-c2nn3c(-c4ccco4)nnc3s2)c1,2.2,-11,-4,-2.1,-4,-0.6,-6,-1.5
COC(=O)CN(c1ccc2c(c1)OCO2)S(=O)(=O)c1c(C)[nH]c(=O)[nH]c1=O,-4.4,-3,-7,1.2,-10,1.9,-1,-0.5
COc1ccc(N2C(=O)CC(NCc3ccncc3)C2=O)cc1 (configuration not stated),4.2,0,-1,2.2,-4,0.8,6,1.5
CCS(=O)(=O)c1ccc(S(=O)(=O)CC)s1,0.3,7,-9,-2.0,-8,36*,-13,-0.1
O=C(O)C1CCCN(S(=O)(=O)c2ccc(F)cc2)C1 (configuration not stated),-3.1,1,-5,0.5,1,8.6,-9,0.1
Cn1ncc(Br)c1C(=O)N/N=C/c1cccc(OC2CSC2)c1,0.8,-26,-7,.,-4,?,-19,0.2
CCOC(=O)c1c(NC(=O)C(C)Sc2cccc[n+]2[O-])sc2c1CCN(Cc1ccccc1)C2 (configuration not stated),-0.5,6,.,1.7,13,.,.,-0.9
c1ccc([C@H]2CN3C(=N2)Sc2ccccc23)cc1,-26,-6,.,1.2,-2,.,.,-13
Cc1sc2nc(CC(N)=O)[nH]c(=O)c2c1-c1ccccc1,-3.2,3,-6,1.6,-8,5.4,-19,-0.1
O=c1[nH]c(/C=C/c2ccc(Br)cc2)nc2c1cnn2-c1ccccc1,11,.,-3,-453,-5,-1.0,-14,0.9
Cc1ccc(S(=O)(=O)N/N=C\c2cn(-c3ccccc3)nc2-c2ccccc2)cc1,-4.7,-8,45,.,-4,1.2,27,-0.1

# Screening data as filed in PubChem.
